Screening results from PubChem.
ALR H2O2 inh: inhibitors of human ALR sulfhydryl oxidase, primary screen, biochemical, H2O2 detection, HRP-luminol luminescence, single point; purified ALR, DTT oxidation; inhibition, % (test concentration not listed); AID 485317, 2010; FAD-linked sulfhydryl oxidase ALR (Homo sapiens), P55789; 290,000 compounds, 3.8% hits;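 active means mean and each replicate at 75% or more; inconclusive means only one of the two met; inactive means neither met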;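 further: stock transfer was 7.5 nL into about 7.5 µL; 0% = neutral wells and 100% = wells with inactivated enzyme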
Target sequence (P55789 whole entry, looked up): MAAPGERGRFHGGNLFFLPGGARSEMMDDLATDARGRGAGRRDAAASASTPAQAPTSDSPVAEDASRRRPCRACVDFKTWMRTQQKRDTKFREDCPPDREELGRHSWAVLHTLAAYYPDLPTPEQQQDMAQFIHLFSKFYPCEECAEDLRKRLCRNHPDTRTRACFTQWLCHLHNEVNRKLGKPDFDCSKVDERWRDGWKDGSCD
Ecoli rRNA inh: reduced GFP signal of wild-type E. coli, primary screen, bacterial rRNA inhibitor project, GFP/RFP fluorescence, OD600, single point; E. coli WT GFP vs humanized-ribosome RFP mutants, 24 h; stronger effect = lower value; DMSO median 0, no signal -100; GFP signal change (wild-type ribosome), % (no concentration beside the values); 350,000 compounds, 1.6% hits;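 active means significant combined selectivity score with lowered wild-type GFP, culture density cut under 30%, mutant RFP and density less affected; inactive means any of these conditions unmet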; further: one replicate is shown; some compounds called inactive have numbers as strong as hits
T cruzi repl: inhibitors of intracellular T. cruzi growth, primary screen, luminescence, NIH3T3 host cells. 300,000 compounds, 1.4% hits. T. cruzi beta-gal in NIH3T3, 90 h. inhibition, % (no concentration beside the values). AID 1885, 2009;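 active means mean inhibition across valid replicates above about 55%, limit read from the data; inconclusive means mean below that limit but half or more replicates reach it; inactive means mean below it, under half of replicates reach it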;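 further: signal also drops with host cell toxicity which is not excluded here; 0% = plate median of DMSO wells and 100% = zero luminescence signal; higher percent means less beta-gal luminescence so fewer parasites; stock transfer was 50 nL into about 50 µL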
Beta2AR agonist: beta2AR agonists driving receptor internalization, primary screen, cell-based, FAP fluorogen, flow cytometry; Beta-2 adrenergic receptor (Homo sapiens), P07550; Am2.2-beta2AR cells; reference of the scale not given here; 340,000 compounds, 0.43% hits; response, % (concentration not given with the values);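 active means response above a set limit, near 3 SD of response in nonfluorescent compounds, cut at about 42% in these data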;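 further: stock transfer was 100 nL into about 11 µL; a reference agonist was the positive control; negative values mostly stem from fluorescent compounds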
Target sequence (P07550 whole entry, looked up): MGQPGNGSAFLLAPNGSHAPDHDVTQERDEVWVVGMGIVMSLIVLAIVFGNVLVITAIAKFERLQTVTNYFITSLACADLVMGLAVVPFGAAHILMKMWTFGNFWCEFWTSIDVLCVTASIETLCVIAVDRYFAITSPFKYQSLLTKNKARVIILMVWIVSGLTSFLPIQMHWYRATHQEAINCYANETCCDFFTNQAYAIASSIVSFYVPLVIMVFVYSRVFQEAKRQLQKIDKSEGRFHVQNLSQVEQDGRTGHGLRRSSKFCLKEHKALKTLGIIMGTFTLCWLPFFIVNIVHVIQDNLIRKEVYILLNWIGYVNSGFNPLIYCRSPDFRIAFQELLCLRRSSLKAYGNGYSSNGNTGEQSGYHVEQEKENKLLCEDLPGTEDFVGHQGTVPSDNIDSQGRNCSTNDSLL
LANA-H2A inh: blockers of LANA interaction with H2A/H2B – biochemical, FP readout, HTS, primary screen; inhibition, % (test concentration not listed); cell-free LANA-H2A/H2B peptide, fluorescence polarization; 320,000 compounds, 0.6% hits; in the data active means inhibition mostly above about 10%, no sharp cut-off; inactive means mostly below about 6.7%;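 further: stock transfer was 7.5 nL into about 10 µL; 0% = median of vehicle wells and 100% = median of positive control wells; one replicate is shown; the record names a cut of 25% in any replicate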
Beta apoptosis: inhibitors of cytokine-induced beta cell apoptosis, primary screen, luminescence; INS-1E cytokine-induced death, ATP luminescence, 48 h; percent of positive-control rescue, neutral wells zero; protection from apoptosis, % (concentration not given with the values); 300,000 compounds, 0.8% hits; AID 435005, 2010;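 active means all replicates at 75% or more, or half of them and the mean; inconclusive means half reach 75% but not the mean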;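 further: 0% = cytokine-treated negative control wells and 100% = positive control rescue; higher means more ATP so stronger rescue from cytokine killing; wells of about 40 µL received 100 nL stock; the first replicate is given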
A1 inh: caspase 3/7 activation in MEF A1-2A-BIM cells, primary screen, A1 inhibitor project, cell-based, luminescence, HTS | Caspase-Glo 3/7 luminescence, 3 h; percent of clofoctol response, vehicle zero | caspase activation, % (concentration not given with the values) | AID 2462, 2010 | 330,000 compounds, 0.066% hits;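 active means over half of replicate activation scores above 10%, or exactly half above 10 with the replicate mean above 10; inconclusive means replicate mean below 10 yet half the replicates above 10; inactive means over half of replicates below 10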;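 further: wells of about 30 µL received 50 nL stock; many hits fall short of the cut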
Calb FLC: C. albicans growth inhibition with fluconazole, primary screen, CaCi-2 strain, Alamar Blue fluorescence | C. albicans CaCi-2 (fluconazole-resistant clinical isolate) + fluconazole, 48 h | growth inhibition, % (test concentration not listed) | 300,000 compounds, 0.57% hits | AID 1979, 2009;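 active means most replicates above 75%; inconclusive means exactly half above 75%; inactive means most below 75%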;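 further: all wells also contain fluconazole at 8 µg/ml as a sub-toxic cotreatment; 0% = median of DMSO wells and 100% = median of geldanamycin control wells; wells of about 8 µL received 7.5 nL stock; the first replicate is given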
Ecoli rRNA inh OD600: also measured in Ecoli rRNA inh; calls as there; OD600 change, %; measured here: OD600 growth;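 optical density of the mix in the first replicate; 0 = DMSO median and -100 = no signal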
Ecoli rRNA inh RFP: recorded beside Ecoli rRNA inh, whose call it bears; RFP signal change, %; measured here: RFP humanized mutant strains;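 first replicate; 0 = DMSO median and -100 = no signal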
* = called active by the depositor; ? = inconclusive; . = no result given. An excerpt; rates above refer to the full screens.

Sequence of screens: ALR H2O2 inh	Ecoli rRNA inh	Ecoli rRNA inh OD600	Ecoli rRNA inh RFP	T cruzi repl	Beta2AR agonist	LANA-H2A inh	Beta apoptosis	A1 inh	Calb FLC
> O=C(c1ccccc1)c1nc2c(n1O)CCCCC2
→ .	18	17	3.7	-8	-3	4.5	-3	0.9	0
> CCC(=O)Nc1nnc(SCC(=O)Nc2ccc3c(c2)OCO3)s1
→ -1	0	7	-1.6	4	-2	2.0	11	0.5	-8
> Cc1cc(C)cc(C(=O)NCC(=O)OCN2C(=O)c3ccccc3C2=O)c1
→ -10	8	14	0.2	.	19	1.1	-3	0.5	.
> O=C1NC(c2ccc(-c3ccccc3[N+](=O)[O-])o2)C(C(=O)c2ccc(F)cc2)C(O)(C(F)(F)F)N1 (stereo not drawn)
→ .	.	.	.	-4	8	2.2	-2	-0.7	-14
> Cc1c(NC(=O)C(C)N2C(=O)C3CCCCC3C2=O)c(=O)n(-c2ccccc2)n1C (stereo not drawn)
→ .	4	4	-1.3	-13	0	0.3	1	0.6	-16
> O=C(CN1C(=O)/C(=C/c2ccccc2)SC1=S)Nc1ncc(Cc2ccccc2)s1
→ 3	.	.	.	8	-2	0.0	-3	0.3	4
> Cc1ccc(C2=NC(C(F)(F)F)(C(F)(F)F)c3c(n(-c4ccc(F)cc4)c(=O)[nH]c3=O)N2)cc1
→ 0	.	.	.	-11	10	0.6	38	0.8	35
> CCN(c1ccccc1)S(=O)(=O)c1ccc(OC)c(NC(=O)Cc2ccc(OC)c(OC)c2)c1
→ -1	-9	-8	-1.7	.	9	4.4	10	-0.8	.
> Cc1cccc(-c2nc(C#N)c(NCC3CCCO3)o2)c1 (stereo not drawn)
→ 5	.	.	.	-18	1	-3.9	-3	-0.4	-11
> Cn1c(=O)cc(SCC(=O)NCc2ccco2)c2ccccc21
→ 11	.	.	.	6	-14	2.5	-12	0.4	10
> Cc1ccc(/C=C/S(=O)(=O)Nc2ccc(C)cc2)cc1
→ 4	1	-3	-1.3	12	2	2.4	-1	0.7	-1
> COC(=O)[C@]1(C)N[C@H](CN(C)C(=O)NC(C)C)[C@@H]2C(=O)N(C)C(=O)[C@@H]21
→ .	13	11	-1.6	.	-3	-0.9	-4	-0.4	.
> S=c1[nH]nc(-c2ccccn2)n1/N=C/c1ccc(-c2ccccc2Br)o1
→ .	14	-2	-0.5	-14	8	.	.	.	-3
> CC1(C)O[C@H]2OC([C@H](O)CON3C(=O)c4ccccc4C3=O)[C@H](O)[C@H]2O1 (stereo partly drawn)
→ 14	.	.	.	.	.	4.4	-4	-0.7	.
> O=C1C(Cl)=C(NCCCO)C(=O)c2ccccc21
→ -22	.	.	.	-15	2	-0.4	16	-0.2	?
> CCOC(=O)c1ccc(-c2ccc(C(=O)Nc3cccnc3)o2)cc1
→ -25	.	.	.	3	0	-0.7	4	-0.4	3
> Brc1ccc(-c2noc(CCc3ccccc3)n2)o1
→ 1	0	-14	-3.5	4	-1	-2.5	-7	-0.4	-19
> CCOc1cccc(-c2c(C(=O)N/N=C/c3c(F)cccc3Cl)nnn2-c2nonc2N)c1
→ 3	0	2	-1.5	-1	9	-0.4	.	-2.2	-8
> O=C(CNC(=O)Cc1ccccc1)NCC(=O)OCC(=O)c1cccc2ccccc12
→ -36	.	.	.	-13	-4	-0.2	-5	0.6	13
> Fc1ccc(CSc2nnc(-c3ccco3)o2)cc1
→ .	-17*	2.6*	6.7*	2	-2	0.0	-9	0.5	6

Overlap with the part before: 5 compounds, followed by the next part.
Sequence of screens: ALR H2O2 inh	Ecoli rRNA inh	Ecoli rRNA inh OD600	Ecoli rRNA inh RFP	T cruzi repl	Beta2AR agonist	LANA-H2A inh	Beta apoptosis	A1 inh	Calb FLC
> CCOC(=O)c1ccc(-c2ccc(C(=O)Nc3cccnc3)o2)cc1
→ -25	.	.	.	3	0	-0.7	4	-0.4	3
> Brc1ccc(-c2noc(CCc3ccccc3)n2)o1
→ 1	0	-14	-3.5	4	-1	-2.5	-7	-0.4	-19
> CCOc1cccc(-c2c(C(=O)N/N=C/c3c(F)cccc3Cl)nnn2-c2nonc2N)c1
→ 3	0	2	-1.5	-1	9	-0.4	.	-2.2	-8
> O=C(CNC(=O)Cc1ccccc1)NCC(=O)OCC(=O)c1cccc2ccccc12
→ -36	.	.	.	-13	-4	-0.2	-5	0.6	13
> Fc1ccc(CSc2nnc(-c3ccco3)o2)cc1
→ .	-17*	2.6*	6.7*	2	-2	0.0	-9	0.5	6
> CCC(C(=O)Nc1ccc(C(=O)O)cc1NC(=O)C(CC)c1ccccc1)c1ccccc1 (stereo not drawn)
→ -1	9	8	2.7	-11	-6	-2.2	-6	0.1	4
> CCOC(=O)c1ccc(N2CCN(C(C)=O)CC2)c(NC(=O)c2cccnc2)c1
→ -2	8	0	0.9	9	3	-4.3	.	0.0	30
> c1ccc(-c2nnsc2-c2ncc[nH]2)cc1
→ 0	18	11	-0.4	-4	-4	2.3	2	-1.8	2
> Cc1oc(-c2ccccc2F)nc1CS(=O)(=O)CC(=O)NC1CCCC1
→ 37	0	3	-0.6	7	5	2.6	-2	-0.5	3
> Cc1onc(-c2ccccc2)c1C(=O)Nc1ccccc1NC(=O)c1c(-c2ccccc2)noc1C
→ -1	2	2	2.4	0	-3	-3.3	-1	0.5	3
> CN(C)/C=N/c1c(C#N)cnn1C
→ -5	16	10	1.9	-5	-4	-1.2	-10	0.4	?
> COc1ccc(OC)c(N2C(=O)c3cccnc3C2=O)c1
→ -1	-6	5	3.9	-7	34	-1.3	-9	1.5	27
> CC(=O)Oc1ccc(/C=C(\NC(=O)c2cccc(Br)c2)C(=O)Nc2ccc(C(=O)O)cc2)cc1
→ 50	5	9	0.3	10	-2	2.9	.	-0.2	0
> NS(=O)(=O)c1ccc(NC(=S)Nc2ccc(C(=O)N3CCCCC3)cc2)cc1
→ 14	-6	4	0.7	0	-6	-2.0	-4	0.5	-6
> O=C(CSc1ccccc1)Nc1nccs1
→ -4	5	2	-0.6	-9	2	2.2	-3	0.8	-22
> COCCNC(=O)c1ccc2c(c1)NC(=O)CS2
→ -6	.	.	.	-8	-4	2.8	-2	0.7	5
> COc1ccc(-c2cc(C(=O)NCCCN3CCOCC3)on2)cc1OC
→ 47	10	15	3.4	6	0	0.4	0	0.0	4
> Cc1ccc(-c2nc(CS(=O)(=O)CC(=O)NCc3cccc(F)c3)c(C)o2)cc1
→ -3	13	10	-0.2	-14	3	-6.7	5	.	1
> CCOc1ccc(CCNS(=O)(=O)c2ccc3c(c2)N(C(C)=O)CCO3)cc1OCC
→ -5	-5	-5	0.6	8	3	-0.3	-4	-0.6	2
> CCOC(=O)C1=C(C)NC(=S)NC1c1ccco1 (stereo not drawn)
→ .	7	12	7.7	-9	1	-1.2	.	-0.3	-12
> Cn1c(=NC(=O)c2ccc(S(=O)(=O)N3CCCc4ccccc43)cc2)sc2cc(S(C)(=O)=O)ccc21
→ -23	.	.	.	52	5	1.3	12	0.1	10
> Cc1cc(C)nc(NC2=NCC(=O)N2c2ccccc2Br)n1
→ .	4	11	2.3	-10	-1	1.6	-2	1.1	-11
> CC(C)(C)CC(=O)Nc1nnc(SCC(=O)NCc2cccs2)s1
→ -10	11	19	1.9	-2	-7	-0.5	0	-0.7	22
> CCOc1ccccc1CN1C(=O)c2ccccc2C1C(=O)NC(C)CC (stereo not drawn)
→ -4	.	.	.	-8	-7	3.0	-3	-0.5	-1
> CNC(=O)CSc1nnc(-c2cnccn2)n1C
→ 1	19	20	-0.5	-9	-7	2.1	-4	-0.4	-2

Quoted from the listing:
COCCNC(=O)c1ccc2c(c1)NC(=O)CS2 – Calb FLC = 5
CCOC(=O)C1=C(C)NC(=S)NC1c1ccco1 (stereo not drawn) – Ecoli rRNA inh = 7

Additional structures
Sequence of screens: ALR H2O2 inh	Ecoli rRNA inh	Ecoli rRNA inh OD600	Ecoli rRNA inh RFP	T cruzi repl	Beta2AR agonist	LANA-H2A inh	Beta apoptosis	A1 inh	Calb FLC
> Cc1ccc(-n2c(SCCN)nnc2-c2cccc(C)c2)cc1
→ -19	4	-14	6.3	16	5	1.6	1	0.8	5
> Oc1ccc(N=Nc2ccccc2-c2nn[nH]n2)c(O)c1
→ .	-31*	-14*	-1.1*	3	9	4.0	.	-0.8	-8
> CN(Cc1cc([N+](=O)[O-])c2cccnc2c1O)C1CCCCC1
→ -26	.	.	.	-22	.	11	-2	-0.5	2
> Cc1ccc(C(=O)C(C)OC(=O)Cn2cnc3c2c(=O)n(C)c(=O)n3C)cc1 (stereo not drawn)
→ 0	11	16	-1.1	-20	0	3.5	1	1.0	-2
> CCOC(=O)c1ccc(/C=N/O)[n+](Cc2ccccc2)c1
→ .	12	9	0.0	-7	-1	-6.0	-5	-0.9	-10
> N/C(COc1cccc(Cl)c1)=N\O
→ -10	3	6	-4.4	-19	-1	-0.5	-3	1.7	2
> FC(F)Oc1ccc(-c2csc(NNC3=NCCCCC3)n2)cc1
→ 35	16	11	2.1	?	-1	-0.6	30	-0.5	4
> COc1cc(OC)cc(C(=O)N2CC(=O)Nc3ccccc32)c1
→ -1	-2	-5	5.0	-7	26	-4.3	15	1.2	1
> Cc1ccc(CNC(=O)C2CCN(S(=O)(=O)c3c(C)noc3/C=C/c3ccco3)CC2)cc1
→ -3	10	7	4.7	16	9	2.0	2	-0.3	-5
> COc1cccc(C2C(C#N)=C(N)Oc3cc(C)n(Cc4ccco4)c(=O)c32)c1 (stereo not drawn)
→ 11	.	.	.	-11	4	0.3	3	0.3	-1
> c1cc2nc(C34CC5CC(CC(C5)C3)C4)[nH]c2cn1
→ -9	6	4	-0.8	-3	-412	-4.9	-6	0.1	-4
> Cc1cnc(C(=O)OCC(=O)Nc2cc(Cl)ccc2C#N)cn1
→ 0	15	21	2.9	.	6	-1.7	-1	1.1	.
> Cn1c(SCC(=O)Nc2ccc3cn[nH]c3c2)nnc1-c1cccs1
→ -21	.	.	.	21	-18	-6.0	1	0.1	1
> CCN1CCN(c2ccc(S(=O)(=O)N3CCCCC3)cc2NC(=O)c2cc3ccccc3o2)CC1
→ .	-10	18	12	76*	48*	-5.2	5	0.2	-7
> O=C(O)c1ccccc1-c1ccccc1C(=O)Nc1nc2ccccc2s1
→ -2	-9	-10	9.8	-22	6	-0.1	0	1.3	-10
> CNS(=O)(=O)c1cc(NC(=O)c2cncn2-c2ccccc2)ccc1C
→ -3	-4	-8	2.4	2	-6	0.8	-4	0.9	2
